HIV TAR-Tat = HIV-1 TAR-Tat binding disruption | z-score (no concentration beside the values) | 100,000 tested, 0.6% active | AID 1259389 | HIV-1 TAR RNA, Tat peptide displacement FRET; stronger effect = higher value;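 further: score is relative to mean and SD of negative controls; some compounds called inactive have numbers as strong as hits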
CDC25B-CDK2 inh = human CDC25B-CDK2/CyclinA binding inhibition; HTRF CDC25B-CDK2/CyclinA binding, anti-His/anti-Flag; stronger effect = higher value; z-score (concentration not given with the values); 94,000 tested, 0.72% active;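 further: score is relative to mean and SD of negative controls; strong numbers were not always called active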
An asterisk follows results filed as active; · = not tested or not shown.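 How the source made its calls: active means z-score from 3 up in half or more of its runs; inactive means the rest.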

| SMILES | HIV TAR-Tat | CDC25B-CDK2 inh |
| --- | --- | --- |
| CC(C)[C@H]1CN[C@H](C(=O)O)[C@H]1CC(=O)O | · | -2.2 |
| O=[N+]([O-])c1ccc(N2CCOCC2)c2nonc12 | · | -0.46 |
| Cc1nn(C2CCOC(C)(C)C2)c2c1C(c1ccc(OC(C)C)cc1)SCC(=O)N2 (stereo unspecified) | 1.6 | 0.55 |
| Cc1ncc2n1-c1ccc(Cl)cc1C(c1ccccc1F)=NC2 | -3.5 | · |
| CCCOc1ccc(C2SCC(=O)Nc3c2c(=O)[nH]n3C(C)CC)cc1 (stereo unspecified) | 2.8 | -1.9 |
| O=S1(=O)N(Cc2cccc(Cl)c2)CCCN1Cc1cccc(Cl)c1 | 1.1 | · |
| CCN1CCC2(CC1)NC(=O)c1ccccc1O2 | · | 0.88 |
| CC[C@@H]1[C@@H](O)N2C3C[C@H]1C1C(O)[C@]4(C[C@@H]12)c1ccccc1N(C)[C@@H]34 (stereo partly specified) | 0.72 | · |
| CCC(=O)c1c(O)n(C)c(=O)n(C)c1=O | · | 0.14 |
| CC1=C(C(=O)O)N2C(=O)C(NC(=O)Cc3ccccc3)C2SC1 (stereo unspecified) | · | -0.77 |
| Cc1cccc(C2NCc3ccccc3-n3cccc32)c1 (stereo unspecified) | 1.4 | -0.44 |
| C/C(=C\c1ccc2c(c1)OCO2)[N+](=O)[O-] | · | -1.2 |
| O=C(Nc1ccccc1F)N1Cc2ccccc2-n2cccc2C1c1ccccc1 (stereo unspecified) | -1.2 | · |
| c1ccc(-n2cc(-c3nc(N4CC4)nc(N4CC4)n3)c3ccccc32)cc1 | · | 0.44 |
| Cc1cc(C)nc(-n2nc(-c3ccccc3)c3c2NC(=O)CSC3c2cc(F)ccc2F)n1 (stereo unspecified) | 0.78 | -1.5 |
| Cc1nn2c3cc(N4CCNCC4)ccc3nc2c2ccccc12 | 3.8* | -2.7 |
| C=CCOC(=O)COc1cc(C)cc2oc(=O)c3c(c12)CCC3 | · | -0.66 |
| C#CC(C)(C)N=C(N)N[N+](=O)[O-] | · | -2.4 |
| c1cc2c(cc1C1NN=C3C4CCN(CC4)C31)OCO2 (stereo unspecified) | · | -0.83 |
| COc1cc(C2SCC(=O)Nc3n[nH]c(C)c32)ccc1O (stereo unspecified) | 1.9 | -0.1 |
| O=C1CN=C(c2ccccc2)c2cc([N+](=O)[O-])ccc2N1 | -0.49 | · |
| COc1cc(Br)c(CNCCc2ccc3c(c2)OCO3)cc1OC | 0.17 | -0.55 |
| Clc1ccc(CSC(Cn2ccnc2)c2ccc(Cl)cc2Cl)cc1 (stereo unspecified) | 2 | · |
| CN1CCc2cc3c(cc2[C@H]1C1OC(=O)c2c1ccc1c2OCO1)OCO3 (stereo partly specified) | 2.4 | · |
| COc1ccc(C2SCC(=O)Nc3c2c(C)nn3-c2nc(C)cc(C)n2)cc1OC (stereo unspecified) | -1 | -2.3 |
| CC(=O)OC1(Cc2ccccc2)CN2CCC1c1ccccc12 (stereo unspecified) | 0.61 | -0.17 |
| COc1cc(C)c(CNCCc2c[nH]c3ccccc23)cc1C | 0.88 | 1.3 |
| CN1CCCCC1Cn1cc(C(=O)c2cc([N+](=O)[O-])ccc2I)c2ccccc21 (stereo unspecified) | 1.5 | · |
| CN(C)c1ccc(C2c3cccn3-c3ccccc3CN2C(=O)NCc2ccccc2)cc1 (stereo unspecified) | -0.01 | · |
| Cc1c(C(=O)N2CCC3(CC2)OCCO3)sc2ncn(CC(=O)N3CC(C)CC(C)C3)c(=O)c12 (stereo unspecified) | · | 2.5 |
| CCCCCn1c(C)c(C(=O)c2cccc3ccccc23)c2ccccc21 | 0.1 | · |
| Cc1cccc(-n2c(CC3C(=O)Nc4ccc(C)cc43)nc3ccccc3c2=O)c1 (stereo unspecified) | 0.38 | 0.2 |
| CC(=O)O.CC(=O)O.[Cd] | 1.9 | · |
| CCOc1ccccc1Oc1c(C)oc2cc(OC(=O)N(C)C)ccc2c1=O | 0.15 | -1.4 |
| O=C1/C(=C/c2ccccc2)C[C@@]2(O)[C@H]3Cc4ccc(O)c5c4[C@@]2(CCN3CC2CC2)[C@H]1O5 | · | -2.9 |
| OCC12COC3c4ccccc4C(OC1)N32 (stereo unspecified) | · | -1.1 |
| CC1[C@H](C)OC(=O)CC(O)CC(O)CC(O)CCC(O)C(O)C[C@]2(O)CC(O)C(C(=O)O)C(CC(OC3O[C@H](C)[C@@H](O)[C@H](N)[C@@H]3O)/C=C/C=C/C=C/C=C/CC/C=C/C=C/[C@H](C)[C@H]1O)O2 (stereo partly specified) | 2.3 | · |
| CC(CCc1ccccc1)NC(C)C(O)c1ccc(O)cc1 (stereo unspecified) | 1.5 | -0.7 |
| O=C(Nc1ccccc1)Nc1cnns1 | -0.51 | 20* |
| Clc1ccc(COC(Cn2ccnc2)c2ccc(Cl)cc2Cl)c(Cl)c1 (stereo unspecified) | 1.9 | · |
| C#CCOc1ccc(C2SCC(=O)Nc3c2c(C)nn3-c2nc(C)cc(C)n2)cc1OC (stereo unspecified) | -0.4 | -2.3 |
| CCCOC(=O)COc1cc(C)cc2oc(=O)c3c(c12)CCC3 | · | -2.5 |
| N#Cc1ccc(CN=C(N)N[N+](=O)[O-])cc1 | · | -1.1 |
| CSc1ccc(C2NCc3ccccc3-n3cccc32)cc1 (stereo unspecified) | 0.5 | -0.75 |
| CCCCCn1cc(C(=O)c2ccc(CC)c3ccccc23)c2ccccc21 | -0.88 | · |
| Cc1ccc(CNCCc2ccc3c(c2)OCO3)cc1 | -0.32 | 1.1 |
| COc1ccc(CCNCc2cccn2C)cc1 | 0.86 | 2 |
| Cc1cccc(C)c1-n1nnnc1C1(N)CCCCC1 | 1.5 | · |
| Clc1cc(I)cc(Cl)c1NC1=NCCN1 | · | -1 |
| O=C(O)CCC(=O)OC1N=C(c2ccccc2Cl)c2cc(Br)ccc2NC1=O (stereo unspecified) | 0.85 | -0.82 |

Entries listed so far that contain an aryl methoxy group:
| SMILES | HIV TAR-Tat | CDC25B-CDK2 inh |
| --- | --- | --- |
| COc1cc(C2SCC(=O)Nc3n[nH]c(C)c32)ccc1O (stereo unspecified) | 1.9 | -0.1 |
| COc1cc(Br)c(CNCCc2ccc3c(c2)OCO3)cc1OC | 0.17 | -0.55 |
| COc1ccc(C2SCC(=O)Nc3c2c(C)nn3-c2nc(C)cc(C)n2)cc1OC (stereo unspecified) | -1 | -2.3 |
| COc1cc(C)c(CNCCc2c[nH]c3ccccc23)cc1C | 0.88 | 1.3 |
| C#CCOc1ccc(C2SCC(=O)Nc3c2c(C)nn3-c2nc(C)cc(C)n2)cc1OC (stereo unspecified) | -0.4 | -2.3 |
| COc1ccc(CCNCc2cccn2C)cc1 | 0.86 | 2 |

Carrying on.
| SMILES | HIV TAR-Tat | CDC25B-CDK2 inh |
| --- | --- | --- |
| ClC1C(Cl)C(Cl)C(Cl)C(Cl)C1Cl (stereo unspecified) | 1.4 | · |
| COC(=O)N(c1ccccc1)P(=O)(Oc1ccccc1)Oc1ccccc1 | · | 1.3 |
| CCCC12CN3CC(C)(CN(C1)C3c1ccccn1)C2=O (stereo unspecified) | -0.81 | -2.5 |
| NNC(N)=O | · | -0.75 |
| OC[C@H]1O[C@@H](Oc2c[nH]c3ccc(Br)c(Cl)c23)[C@H](O)[C@@H](O)[C@H]1O | · | -1.5 |
| OC1C2(c3ccccc3)CN3CN(C2)CC1(c1ccccc1)C3 (stereo unspecified) | 1.9 | -0.95 |
| O=[N+]([O-])O[C@H]1CO[C@H]2[C@@H]1OC[C@H]2O[N+](=O)[O-] | 1.2 | · |
| Cc1ccc(C2SCC(=O)Nc3c2c(C)nn3-c2ccc(F)cc2)cc1 (stereo unspecified) | -0.81 | -1.5 |
| CCCCOC(=O)C1=C(N)OC2=C(C(=O)CCC2)C12C(=O)N(C)c1ccccc12 (stereo unspecified) | · | -0.64 |
| O=C(c1ccc(Br)cc1)C12CN3CN(CN(C3)C1)C2 | 0.78 | 0.11 |

Next part.
The line under a structure holds: HIV TAR-Tat | CDC25B-CDK2 inh
c1cc2c(cc1CCNCc1ccc3c(c1)OCO3)OCO2
  0.28 | -1.2
NC(=O)COc1c(F)cc(SCCNS(=O)(=O)c2ccccc2)cc1F
  · | -0.8
CC(C)Nc1nc(Cl)nc(NC(C)C)n1
  3.5 | ·
OC[C@@H]1[C@@H](O)[C@H](O)[C@H]2[C@@H](O)CCN21
  1.8 | ·
O[C@H]1[C@H](O)[C@@H](O)CN2CC[C@H](O)[C@H]12
  2.9 | ·
COc1cc2[nH]c(=O)n(-c3ccccc3)c(=O)c2cc1OC
  · | -0.15
COc1cc(N=C(N)N[N+](=O)[O-])cc(OC)c1OC
  · | -0.81
COc1ccccc1C1SCC(=O)Nc2c1c(C)nn2C1CCOC(C)(C)C1 (stereo unspecified)
  -1.3 | -1.3
C=C(C)CN1CC[C@]23c4c5ccc(O)c4O[C@H]2c2[nH]c4ccccc4c2C[C@@]3(O)C1C5
  2.1 | ·
O=C1CNC(c2ccccc2Cl)c2cc(Br)ccc2N1 (stereo unspecified)
  0.89 | 1.3
Cc1c(C(=O)N2CCC3(CC2)OCCO3)sc2ncnc(N3CCc4ccccc4C3)c12
  · | -2.1
C[C@@H]1C(=O)O[C@H]2[C@H]1CC[C@@]1(C)C=CC(=O)[C@@]3(C)O[C@@]213
  2.9 | ·
CCC12CN3CC(CC)(CN(C1)C3c1cccnc1)C2O (stereo unspecified)
  0.85 | -1.8
COc1ccc(C2C(C#N)=C(N)Oc3c2c(=O)oc2ccccc32)cc1CSc1ccccn1 (stereo unspecified)
  · | -0.62
NNCc1ccccc1
  -1.4 | ·
Cc1ccc(-n2nc(C)c3c2NC(=O)CSC3c2cccc(C)c2)cc1 (stereo unspecified)
  -1.7 | -1.6
CNCC(O)c1ccc(O)cc1 (stereo unspecified)
  1.9 | -1.1
CC12NC(=O)CN1CCc1ccccc12 (stereo unspecified)
  · | -1.1
CCCCCCC1C(=O)NC(=S)NC1=O
  · | -2.3
Cc1ccc(C(C)C)c(OC(=O)N(C)C)c1CN(C)C
  -0.37 | -1.4
CO[C@@H]1C[C@@H](C[C@H]2CC[C@H](C)[C@H]([C@@H](C)C(=O)O)O2)O[C@]2(O[C@](C)([C@H]3CC[C@@](C)(C4O[C@@H](C5O[C@@](O)(CO)[C@H](C)C[C@@H]5C)C[C@@H]4C)O3)C[C@H]2C)[C@@H]1C (stereo partly specified)
  -1.3 | ·
Cc1nn(-c2ccccc2Cl)c2c1C(c1cc(F)ccc1F)SCC(=O)N2 (stereo unspecified)
  0.97 | -0.29
N#Cc1cccc(NC(=O)C(Cl)(Cl)Cl)c1
  · | 0.02
CCCCCN(C)CCC(O)(P(=O)(O)O)P(=O)(O)O
  · | -1
CC12CN([N+](=O)[O-])C3(C(N)=O)CC1CCC23C (stereo unspecified)
  · | -3.1
C=C[C@H]1CN2CC[C@H]1C[C@@H]2[C@@H](OC(=O)OCC)c1ccnc2ccc(OC)cc12
  0.43 | ·
O=c1c2ccccc2[nH]c(=S)n1-c1ccc2c(c1)OCCO2
  · | -2.6
CCCCCCCCC(=O)NCc1ccc(O)c(OC)c1
  0.78 | ·
Cc1nn(-c2ccc(F)cc2)c2c1C(c1cc(F)ccc1F)SCC(=O)N2 (stereo unspecified)
  1.1 | 0.11
CC1(C)C2C[C@@H](O)[C@]3(C)C(CC[C@@]4(C)[C@H](c5ccoc5)OC(=O)[C@H]5O[C@]543)[C@@]2(C)[C@@H](O)C[C@H]1O (stereo partly specified)
  3.5 | ·
CCN1CC2(COC)CCC(OC)C34C5C[C@]6(O)C(OC)C[C@@](OC(C)=O)(C5[C@H]6OC(=O)c5ccc(OC)cc5)[C@@H]([C@H](OC)C23)[C@@H]14 (stereo partly specified)
  2.1 | ·
CCN1CCN(c2nc3ccccc3nc2Cl)CC1
  0.55 | 0.66
COc1cc(C2SCC(=O)Nc3n[nH]c(C)c32)ccc1OCc1ccc(C)cc1 (stereo unspecified)
  2.5 | -2.7
O=S1(=O)N(Cc2ccc(F)cc2)CCCN1Cc1ccc(F)cc1
  0.72 | ·
COc1ccc(CNC2CN3CCC2CC3)cc1 (stereo unspecified)
  -1.1 | -2.1
Cc1ccc(-n2nc(C)c3c2NC(=O)CSC3c2ccc(F)cc2)cc1Cl (stereo unspecified)
  0.59 | -1.9
CCOC(=O)CNC(=O)N1Cc2ccccc2-n2cccc2C1c1cccs1 (stereo unspecified)
  0.4 | ·
O=C(NCc1ccccc1)N(Cc1ccc2c(c1)OCO2)C1CCN(Cc2ccccc2)CC1
  0.99 | ·
Cc1cc(N2C(=O)C3CCCN3C2c2ccccc2C)no1 (stereo unspecified)
  · | -1.1
CC(=O)O[C@H]1[C@H]2O[C@]23[C@@H]2CC[C@@H]4C[C@@H](O)CC[C@]4(C)[C@H]2CC[C@]3(C)[C@H]1c1ccc(=O)oc1
  2.5 | ·
O=C(NCc1ccc(F)cc1)N1Cc2ccccc2-n2cccc2C1c1cccs1 (stereo unspecified)
  0.34 | ·
Fc1ccccc1CNC1CN2CCC1CC2 (stereo unspecified)
  0.32 | -0.12
Cn1c(O)c(C(=O)c2ccccc2)c(=O)n(C)c1=O
  0.28 | -4.1
CCc1ccc(C(=O)C23CN4CN(CN(C4)C2)C3)cc1
  · | -0.48
CCCC12CN3CN(CC(C)(C3)C1O)C2 (stereo unspecified)
  0.47 | -0.81
CCN1CCc2nc3sc(C(=O)OC(C)C)c(N)c3cc2C1
  -0.67 | 1.4
S=C=NCc1ccccc1
  0.33 | ·
COc1ccc(CCNC2(C#N)CCCCC2)cc1OC
  · | -0.88
Fc1cccc(CNCCc2c[nH]c3ccccc23)c1
  0.87 | 8*
Cc1ccc2c(c1)C1CN(C)CCC1N2C(=O)NC(C)(C)C (stereo unspecified)
  0.55 | -0.15
CC(C)NC(=O)N1Cc2ccccc2-n2cccc2C1c1cccc(Cl)c1 (stereo unspecified)
  -0.41 | ·
CC(=O)OC1(c2ccc(C)cc2)CN2CCC1c1ccccc12 (stereo unspecified)
  1.7 | 1.8

Not all compounds are listed (hit frequency here may not be typical).
